# Source: PubChem (ICCB-Longwood Screening Facility, Harvard Medical School)
# Polio RdRp inh: poliovirus RNA polymerase inhibition; P03300; poliovirus polymerase elongation, fluorescence polarization; active compounds read low; % elongation, % (compound at 16.7 µg/mL); 150,000 tested, 0.66% active; in the data active means % elongation below about 90%; further: some results filed as inactive read as strong as hits
# Target sequence (P03300 1749-2209 limits assumed): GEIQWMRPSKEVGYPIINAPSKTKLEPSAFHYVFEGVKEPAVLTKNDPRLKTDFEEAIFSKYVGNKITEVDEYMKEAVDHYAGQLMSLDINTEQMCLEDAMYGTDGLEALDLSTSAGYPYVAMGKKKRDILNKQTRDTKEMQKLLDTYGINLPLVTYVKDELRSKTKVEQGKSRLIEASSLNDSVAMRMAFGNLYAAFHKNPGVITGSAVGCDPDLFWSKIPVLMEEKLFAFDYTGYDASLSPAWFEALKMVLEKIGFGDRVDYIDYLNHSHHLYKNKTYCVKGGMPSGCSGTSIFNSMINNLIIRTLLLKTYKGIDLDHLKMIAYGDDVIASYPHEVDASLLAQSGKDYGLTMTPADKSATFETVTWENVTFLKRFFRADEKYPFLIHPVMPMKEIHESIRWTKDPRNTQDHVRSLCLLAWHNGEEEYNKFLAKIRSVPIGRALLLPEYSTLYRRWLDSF
# MenB inh: inhibitors of Mycobacterium tuberculosis MenB enzyme. MenB enzyme assay, absorbance read-out; some hits fall short of the stated cut. P9WNP5. 100,000 tested, 0.43% active. inhibition, %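 (about 12 µg/mL by stock and volumes)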;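 active means mean of two replicates above 30%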;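 further: 0% = no compound and 100% = wells with inactive enzyme; the first replicate is given; strong numbers were not always called active; inactives centre near -10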
# Target sequence (P9WNP5 whole entry, looked up): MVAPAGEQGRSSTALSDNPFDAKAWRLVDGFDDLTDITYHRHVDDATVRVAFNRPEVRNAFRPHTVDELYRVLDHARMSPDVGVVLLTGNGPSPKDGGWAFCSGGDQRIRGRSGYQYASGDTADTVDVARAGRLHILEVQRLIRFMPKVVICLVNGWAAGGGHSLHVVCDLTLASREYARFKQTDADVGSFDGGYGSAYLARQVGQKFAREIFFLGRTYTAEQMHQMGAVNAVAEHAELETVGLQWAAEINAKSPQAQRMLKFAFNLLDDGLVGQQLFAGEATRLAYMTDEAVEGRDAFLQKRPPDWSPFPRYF
# Mtb MbtI inh: inhibitors of Mycobacterium tuberculosis siderophore enzyme MbtI | P9WFX0 | purified MbtI enzyme, fluorescence intensity read-out | 100,000 tested, 0.89% active | AID 493033 | inhibition, %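 (about 17 µg/mL by stock and volumes)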;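 active means above 50% in both replicates, above 80% if mildly self-fluorescent; inactive means the rest, strongly fluorescent compounds included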;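 further: 0% = mean of negative and 100% = mean of positive controls; one replicate is shown; some compounds called inactive have numbers as strong as hits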
# Polio RdRp inh intensity: also measured in Polio RdRp inh; calls as there; % elongation; measured here: total intensity read-out; formula for this scale not given here;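 total fluorescence in place of polarization; lower means less elongation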
# Active calls of the source: *; · = not tested or not shown; & = joins results of further samples.
SMILES,Polio RdRp inh,Polio RdRp inh intensity,MenB inh,Mtb MbtI inh
COc1ccc2c(Sc3ccccc3)c(C(=O)N3CCCCC3)[nH]c2c1,100.0,108.0,-8.7,8.5
c1nc(N2CCCCCC2)c2ccsc2n1,103.0,105.0,·,-1.7
CC1CCc2[nH]c(=S)nc(C(F)(F)F)c2C1 (configuration not stated),99.0,99.0,-65.2,31.1
CCNc1ccc(-c2nc3ccccc3[nH]2)cn1,105.0,116.0,-17.3,104.9
CC(Sc1ccccc1)C(=O)NN=C1CCCC1 (configuration not stated),100.0,103.0,-8.1,-2.2
CCOC(=O)c1sc(N)c(C#N)c1COC(=O)C1CSC2(C)CCC(=O)N12 (configuration not stated),82.0,221.0,6.2,3.1
CC(Sc1ccc(Cl)cc1)C(=O)NCc1ccncc1 (configuration not stated),105.0,105.0,4.1,·
COc1ccc(-c2noc(COC(=O)C3=NN(c4cc(C)ccc4C)C(=O)CC3)n2)c(OC)c1,104.0,107.0,-9.2,0.2
[O-][n+]1c2c(nn1-c1ccccc1)/C(=N\O)CCC2,101.0,101.0,19.1,14.7
N#CCSc1nc2nccnc2c(=O)n1Cc1ccccc1Cl,101.0,104.0,13.0,2.5
Cc1ccc(-c2noc(CCCC(=O)NCC3CCCO3)n2)cc1 (configuration not stated),103.0,102.0,-9.2,2.9
O=C(CSc1nnc(Cc2ccccc2)o1)c1ccccc1,102.0,101.0,7.0,-6.2
O=C(NCc1ccco1)c1ccc(-n2c(=S)[nH]c3ccccc3c2=O)cc1,100.0,101.0,-48.1,-5.8
Clc1cc(N=Cc2ccccn2)c(Cl)cc1N=Cc1ccccn1,105.0,105.0,·,-7.3
Cc1oc(-c2ccccc2)nc1CSc1nncn2c1cc1sccc12,102.0,102.0,-4.8,7.2
Cc1ccc(S(=O)(=O)CCC(=O)Nc2ccc(S(N)(=O)=O)cc2)cc1,106.0,97.0,-20.2,3.6
O=C(CSc1ncc(CO)n1Cc1ccc(Cl)cc1)N1CCN(c2ccccc2)CC1,101.0,103.0,-6.8,-14.3
O=C(O)CONC1=NS(=O)(=O)c2ccccc21,106.0,100.0,1.3,22.9
Cc1cnc(C(=O)OCC(=O)C(C)(C)C)cn1,103.0,105.0,0.8,2.7
CC(C)(C)C(=O)C(CO)(Oc1ccc(Cl)cc1)n1cncn1 (configuration not stated),103.0,112.0,-11.6,-8.8
CC(=O)N=c1sc(S(N)(=O)=O)nn1C,99.0&100.0,99.0&101.0,-3.1&-5.7,29.5&-4.5
Cc1nc(-c2ccccc2)sc1C(N)=O,102.0,102.0,-10.5,0.1
Cc1c(C)c(C)c2[nH]c(SCc3nc(-c4ccc(Cl)cc4)no3)nc2c1C,105.0,104.0,-1.1,-2.2
O=C(NCC1COc2ccccc2O1)Nc1ccccc1F (configuration not stated),100.0,100.0,-0.2,-14.7
COc1ccc(CN2CCN(c3ncnc4scc(-c5ccc(Cl)cc5)c34)CC2)cc1F,105.0,103.0,-9.8,2.2
CC1=CC(=C2C(=O)NC(=S)NC2=O)C=C(C)N1CC(C)C,92.0,113.0,-36.0,-16.2
O=C(O)c1cc(=O)c2c(O)cccc2o1,103.0,106.0,-2.5,-8.4
COc1cc(SC)ccc1C(=O)NN1CCOCC1,103.0,116.0,-11.0,4.7
Cn1ccnc1SCC(=O)c1ccc2ccccc2c1,102.0,110.0,-3.5,30.1
Nn1c(SCC(=O)N(Cc2ccco2)C2=CCCCC2)nnc1-c1ccc(OC(F)F)cc1,100.0,95.0,-15.0,-8.8
CCOC(=O)N1CCN(C(=O)c2cc(-c3cccc(OC)c3)n[nH]2)CC1,103.0,96.0,7.9,0.4
CC(=O)OC(COc1ccccc1)Cn1cnc2ccccc21 (configuration not stated),106.0,101.0,-7.0,·
CCOc1ccc2[nH]c(=O)c(CN(CC3COCCO3)C(=O)C3CC3)cc2c1 (configuration not stated),103.0,102.0,-56.3,23.9
CCN1CCN(C(=O)C(Cc2ccccc2)NS(=O)(=O)c2ccc3c(c2)c(=O)n(C)c(=O)n3C)CC1 (configuration not stated),102.0,102.0,-7.4,-2.2
Cc1nnc2n1N=C(c1ccc(-c3cc(Cl)ccc3Cl)o1)CS2,100.0,102.0,-0.6,75.6
O=C(N[C@@H](Cc1ccccc1)c1nc2ccccc2[nH]1)c1ccc(=O)[nH]c1,98.0,108.0,6.8,10.1
COCCNC(=O)c1ccc2c(Cl)c3c(nc2c1)CCCC3,103.0,102.0,-7.4,-6.4
CSC(=S)N/N=C(\C)c1ccccc1,118.0,128.0,-64.2,-7.7
CN(C)c1cnn(-c2cnc3ccccc3n2)c(=O)c1Cl,99.0,103.0,-5.7,-11.2
CCC1(CC)Cc2ccccc2C(Nc2c(C)n(C)n(-c3ccccc3)c2=O)=N1,101.0,99.0,-15.2,7.5
CC(C)CCNC(=O)CN1CCOc2ccccc21,101.0,107.0,-5.7,-7.3
Cc1n[nH]c(=O)[nH]c1=O,100.0,103.0,-3.9,-0.3
Cc1ccc(N2C(=NC(=O)CCC(=O)O)SC3CS(=O)(=O)CC32)cc1C (configuration not stated),100.0,102.0,-16.0,-3.2
O=C1C2CCc3[nH]c4ccccc4c3C2C(=O)N1Cc1ccccc1 (configuration not stated),101.0,102.0,2.6,8.8
O=C(N/N=C/c1cn(-c2ccccc2)nc1-c1cc2ccccc2o1)c1ccncc1,103.0,102.0,-50.7,4.1
Cc1nonc1OCC(C)(COc1nonc1C)NS(=O)(=O)c1ccccc1,103.0,102.0,-6.8,-4.0
Nc1c(C(=O)c2cc(F)ccc2O)cnn1-c1ccc(Cl)cc1,105.0,109.0,-11.2,-2.5
O=C(c1ccco1)c1cc(-c2nc3ccccc3[nH]2)c(-c2ccco2)n2c1nc1ccccc12,107.0,104.0,-24.2,-0.2
CC1=CC(=C(C#N)C#N)C=C(C)N1CC1CCCO1 (configuration not stated),96.0,102.0,4.4,12.3
COc1ccccc1N1CCN(C(=O)c2cccn2C)CC1,99.0,101.0,8.1,5.5
Cc1ccc2c(cnn2C(=O)CCCC(=O)NC2CCCC(C)C2C)c1 (configuration not stated),104.0,106.0,3.0,3.8
Clc1ccc(-c2cnc3nonc3n2)cc1,89.0,115.0,-13.1,6.1
O=C(/C=C/c1ccco1)NCCc1csc2nc(-c3ccc(F)cc3)nn12,100.0,108.0,13.1,16.6
O=C(O)CC(NC(=O)C(c1ccccc1)c1ccccc1)c1ccco1 (configuration not stated),104.0,106.0,3.9,-8.2
CC(C)NC(=O)c1ccc2c(c1)S(=O)(=O)c1ccccc1C2=O,102.0,103.0,·,-5.8
CCc1ccc(N(C)S(=O)(=O)c2ccc3[nH]cc(C(=O)N4CCCCCC4)c(=O)c3c2)cc1,103.0,110.0,0.6,-112.2
Cc1c(Cl)cccc1NC(=O)CC(NCc1ccccn1)C(=O)O (configuration not stated),101.0,101.0,-34.1,-6.3
COc1cc(SC)ccc1C(=O)N1CCC(C(N)=O)CC1,103.0,104.0,-13.2,-4.8
Cc1nn(CCC#N)c2nc(C(F)(F)F)[nH]c(=O)c12,103.0&105.0,105.0&102.0,16.6,-8.5&10.8
Cc1cc(N2CCCCC2)nc2ccc(NC(=O)c3ccc(Br)o3)cc12,101.0,102.0,-1.1,8.4
# Other records follow:
SMILES,Polio RdRp inh,Polio RdRp inh intensity,MenB inh,Mtb MbtI inh
COC(=O)c1ccc2c(=O)n(CCCC(=O)O)c(=S)[nH]c2c1,102.0,103.0,1.8,19.4
Cc1cc(C(=O)O)no1,101.0,104.0,31.8*,3.1
CC(=O)Nc1ccc(-n2sc3c(c2=S)-c2cc(C)ccc2NC3(C)C)cc1,101.0,104.0,-18.5,6.7
CCOC(=O)/C=C(\C)NC1CC(C)(C)NC(C)(C)C1,102.0,96.0,11.6,·
COc1ccc(CN=C(C)c2c(O)[nH]c(=O)[nH]c2=O)cc1,108.0,114.0,-2.9,-23.2
Cc1cc(Br)ccc1OCC(=O)NCCC1=CCCCC1,109.0,108.0,-25.9,·
Nc1ncccc1C(=O)OCCN1C(=O)c2ccccc2C1=O,·,·,8.1,-55.6
C=CCNS(=O)(=O)c1cccs1,102.0,97.0,8.1,-201.4
COc1ccc(NC(=O)CCc2c(C)c3c(C)nn(-c4cccc(F)c4)c3n(C)c2=O)cc1OC,103.0,103.0,-0.2,122.2
CCCN(CCC)C(=O)c1c(C)[nH]c(C(=O)OCC)c1C,102.0,104.0,-22.1,3.3
O=C(NCCc1nnc2ccc(SCC(=O)N3CCc4ccccc43)nn12)c1ccccc1,100.0,107.0,-10.1,6.8
Cc1noc(C)c1COc1ccc(C(=O)OCC(=O)NC2CCCc3ccccc32)cc1 (configuration not stated),103.0,106.0,-31.4,-11.9
OCCNc1nc(N2CCOCC2)ncc1F,105.0,102.0,-17.9,88.3
Cn1c(-c2ccccc2)cnc1NC(=O)c1ccc(F)cc1,104.0,103.0,-69.6,9.2
CC1CC(C)N(C(=O)c2cc(-c3ccc(F)cc3)no2)C(C)C1 (configuration not stated),102.0,107.0,-58.7,1.8
O=C(O)C1CC(=O)N(Cc2ccncc2)C1 (configuration not stated),104.0,106.0,-21.2,-8.5
O=C(NC1CCCc2ccccc21)C1COc2ccccc2O1 (configuration not stated),98.0,101.0,-6.8,-5.2
CCOC(=O)c1noc2c1C1=NCCN1C=N2,101.0,103.0,4.1,0.3
CC1CC1c1ccc(CCC(=O)O)o1 (configuration not stated),93.0,93.0,4.5,4.7
Clc1ccc2ncnc(-c3ccccc3)c2c1,102.0,103.0,-21.0,-12.8
Cc1nc2ccc(N=NC3=C(O)CC(C)(C)CC3=O)cc2s1,99.0,106.0,-77.1,13.2
Cc1ccccc1-c1nnn(-c2nc(CN3CCOCC3)nc3sc4c(c23)CCCC4)n1,101.0,106.0,0.2,-2.0
COc1ccc2nc(NNC(=O)c3ccccc3)sc2c1,103.0,100.0,-47.9,17.4
COC(=O)c1ccc(/C=C(\C#N)C(N)=S)cc1,99.0,104.0,-47.8,20.1
CC(C)C(NC(=O)CCc1ccccc1)C(C)C,101.0,101.0,-12.7,-5.0
Cc1ccc(C)c(Cn2c(C)nc3c(sc(=S)n3-c3ccccc3)c2=O)c1,103.0,101.0,-6.8,13.5
O=C(NCc1cccc(Cl)c1)c1nc2c(nnn2Cc2ccccc2)c(=O)[nH]1,102.0,103.0,-31.3,-3.5
CC(NC(=O)CSc1cccc[n+]1[O-])c1ccccc1 (configuration not stated),105.0,109.0,·,-1.8
CC1CCCN(C(=O)c2ccc3ncsc3c2)C1 (configuration not stated),106.0,97.0,6.6,10.8
COc1ccc(-c2noc(-c3ccc(OC)cc3)n2)cc1,96.0,98.0,0.1,7.1

# Whole records from above. Values in the order: Polio RdRp inh, Polio RdRp inh intensity, MenB inh, Mtb MbtI inh
# COC(=O)c1ccc(/C=C(\C#N)C(N)=S)cc1 as listed: 99.0, 104.0, -47.8, 20.1
# CC1CC1c1ccc(CCC(=O)O)o1 (configuration not stated) as listed: 93.0, 93.0, 4.5, 4.7
# O=C(NCc1cccc(Cl)c1)c1nc2c(nnn2Cc2ccccc2)c(=O)[nH]1 as listed: 102.0, 103.0, -31.3, -3.5
# COc1ccc2nc(NNC(=O)c3ccccc3)sc2c1 as listed: 103.0, 100.0, -47.9, 17.4
# Clc1ccc2ncnc(-c3ccccc3)c2c1 as listed: 102.0, 103.0, -21.0, -12.8

# (listing goes on)
SMILES,Polio RdRp inh,Polio RdRp inh intensity,MenB inh,Mtb MbtI inh
COc1cc(S(=O)(=O)N2CCOCC2)cc(C(=O)c2nccn2C)c1OC,104.0,107.0,-23.8,2.6
CC(NC(=O)c1ccc(=O)n(C)n1)C1CC2CCC1C2 (configuration not stated),·,·,3.5,28.3
CCCCC/C=C/C=C1/C(=O)C=C[C@@H]1C/C=C\CCCC(=O)O,100.0&100.0,103.0&102.0,0.5,-4.8
O=C(NCCc1ccccc1)c1cc2ccccc2oc1=O,102.0,105.0,-0.2,1.2
COC(=O)[C@H](c1ccccc1Cl)N1CCc2sccc2C1,97.0,107.0,-2.3,-9.3
Cc1sc(=[N+]2CCCCC2)sc1SCCC(=O)O,104.0,106.0,0.3,·
O=C(O)Cc1ccc(S(=O)(=O)N2CCCC2)s1,104.0,102.0,-8.7,-9.2
Cc1cnn(C(=O)c2cc3ccccc3oc2=O)c1,101.0,102.0,2.2,-5.5
CC(C)CCNc1ccc(-c2ccc(Cl)cc2)nn1,99.0,103.0,6.5,0.5
CCOC(=O)Nc1ccc(Cl)cc1,99.0,102.0,11.1,9.3
C=C(C)Cn1c(SCC(=O)NN)nc2ccccc2c1=O,103.0,106.0,-11.7,16.6
c1ccc(CN2CCN(Cc3ccccc3)C2c2ccco2)cc1,104.0,108.0,-23.0,·
O=C(N=C1c2ccccc2CN1c1ncccn1)c1cccc(F)c1,101.0,105.0,·,-0.7
Nc1c(N2CCOCC2)ccc2nsnc12,94.0,101.0,-4.4,6.8
CCOC(=O)c1cnc2c(C)cc(C)cc2c1Nc1ccc(S(=O)(=O)Nc2ncccn2)cc1,103.0,108.0,-22.4,23.5
NC(=O)c1ccccc1C(=O)c1ccccc1,137.0,143.0,-4.9,·
COc1ccc(Nc2nc(N)nc(CSC(=S)N(C)C3CCCCC3)n2)cc1,102.0,97.0,-16.6,3.5
